# From PubChem BioAssay
# GLA inh pH 4.5 – alpha-galactosidase A (human) inhibition, pH 4.5 | activity change, negative = inhibition, % at 105 µM | 230,000 tested, under 10 active | purified enzyme, 4-MU-alpha-Gal fluorescence, pH 4.5 | P06280; inconclusive = small, poorly fitted or top-dose-only inhibition, or a rising curve; inactive = flat fitted curve, though single readings scatter; no compound was filed as active;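 further: 0% = full activity with enzyme and -100% = basal without enzyme; dose as in the result columns while the protocol names 77 µM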
# Rango dissoc inh – prevents RanGTP from dissociating the Rango-importin beta complex. O95149+P62826. 340,000 compounds, 0.071% hits. Biochemical FRET Rango-importin beta, RanGTP-induced dissociation. Potency, µM (series often up to 46.1 µM), inactives show at the highest dose activity change, negative = inhibition; active means falling FRET ratio curve, often poorly fitted, with flat reads before Ran was added; inconclusive means other falling curves, or compound fluorescence or quenching; inactive means flat or rising ratio curve;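 further: potency means the concentration at half of the fitted maximal effect; % of control where 0% means no effect; nearly all actives have a fitted effect of over 45% in size; -100% = wells without RanGTP and RCC1; the record marks most hits as doubtful in a second field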
#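 Rango (0.1 uM)–importin beta (0.25 uM) complex; RanGTP-RCC1 trigger; 45 min RT; CFP/YFP FRET read.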
# Rango-impB inh – Rango-importin beta binding inhibition; Q14974; Rango CFP/YFP FRET sensor + importin beta, 45 min; Potency, µM (doses to about 92.2 µM), for the others: top-dose inhibition of complex formation; 340,000 compounds, 0.031% hits; AID 540263; active = rising FRET ratio curve, often small or poorly fitted; inconclusive = mostly compound fluorescence or quenching in the first reads; inactive = flat curves in all reads;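 further: potency means the concentration at half of the fitted maximal effect; 0% = DMSO wells and 100% = buffer wells lacking importin beta; nearly all actives have a fitted effect of over 15% in size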
# Target sequence (Q14974 whole entry, looked up): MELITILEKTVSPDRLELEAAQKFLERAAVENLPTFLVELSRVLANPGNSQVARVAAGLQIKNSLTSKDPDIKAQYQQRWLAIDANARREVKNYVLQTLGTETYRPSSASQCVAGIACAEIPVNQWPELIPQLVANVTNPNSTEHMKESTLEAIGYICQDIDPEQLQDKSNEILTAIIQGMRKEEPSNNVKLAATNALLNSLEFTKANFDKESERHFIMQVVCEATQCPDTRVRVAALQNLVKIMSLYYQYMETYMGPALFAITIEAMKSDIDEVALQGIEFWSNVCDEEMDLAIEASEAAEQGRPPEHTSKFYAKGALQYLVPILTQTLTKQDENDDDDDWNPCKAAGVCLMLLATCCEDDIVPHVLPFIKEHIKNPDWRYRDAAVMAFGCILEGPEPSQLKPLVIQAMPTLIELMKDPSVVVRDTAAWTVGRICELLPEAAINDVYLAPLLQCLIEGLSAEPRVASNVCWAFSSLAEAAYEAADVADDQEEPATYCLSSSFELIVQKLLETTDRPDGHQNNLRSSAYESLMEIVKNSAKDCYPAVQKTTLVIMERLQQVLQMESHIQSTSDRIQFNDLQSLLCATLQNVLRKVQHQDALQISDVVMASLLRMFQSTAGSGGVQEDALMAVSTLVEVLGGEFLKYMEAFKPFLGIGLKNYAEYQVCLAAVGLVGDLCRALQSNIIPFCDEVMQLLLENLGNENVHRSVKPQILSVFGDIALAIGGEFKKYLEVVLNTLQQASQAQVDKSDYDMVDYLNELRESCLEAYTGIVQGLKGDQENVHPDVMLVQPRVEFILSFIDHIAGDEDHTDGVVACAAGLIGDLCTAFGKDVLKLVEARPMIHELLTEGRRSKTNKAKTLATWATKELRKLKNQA
#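 FRET biosensor (snurportin 1 IBB flanked by EYFP and cerulean), 50 nM, with compound 5 min, then 0.125 microM importin beta in PBS, 1 mM DTT, 0.02% Tween-20, 0.1% BSA. CFP/YFP ratio read after 45 min at room temperature; pre-read flags interference.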
# miR-21 reporter – miR-21 reporter, rising signal; Potency, µM (top dose mostly 38.3 µM), inactives show top-dose reporter change, positive = more light; HeLa miR-21 FLuc reporter, luciferase, 48 h; 340,000 tested, under 10 active; active = well fitted rising curve with a large enough effect; inconclusive = small, poorly fitted or top-dose-only effect; inactive = no such curve, though single readings can be large or run the other way;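 further: % of control where 0% means no effect; miR-21 action dims this reporter so a rising signal means less miR-21 action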
#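 Luminescence from a firefly luciferase reporter carrying a miR-21 binding site downstream, stably expressed under a CMV promoter in HeLa cells that make miR-21 endogenously, reports miRNA modulation after 48 h compound exposure up to approximately 40uM final.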
# Numbers without * were called inactive; ? = inconclusive; nt = not tested or not shown; & = joins results of further samples. A portion of the library, so the mix of outcomes need not match the whole.
GLA inh pH 4.5	Rango dissoc inh	Rango-impB inh	compound	miR-21 reporter
nt	7%	-0.5%	COc1cc(C(C[N+](=O)[O-])c2c(C)cc3ccccn23)ccc1O (stereo unspecified)	16%
6	1%	-3.1%	Cc1ccccc1OCC(O)Cn1c(NCc2ccccc2)nc2c1c(=O)[nH]c(=O)n2C (stereo unspecified)	-6%
-6	10%	-6.3%	Cc1no[n+]([O-])c1COc1ccccc1/C=N/n1nnnc1N	4%
3	?	?	CN1CCc2nc(SCC(=O)Nc3ccc(OC(F)(F)F)cc3)c(C#N)c(-c3cccs3)c2C1	8%
nt	0%	-3.4%	COc1ccc(N2CCN(C(=O)COC(=O)CCOc3ccc(C)cc3)CC2)cc1	nt
9	nt	nt	CNC(=O)c1c(N)sc2c1CCCCC2	-4%
-10	-24%	2.3%	CCCCOc1ccccc1NC(=O)C=C(C)C	-3%
nt	12%	-2.2%	COc1cc(NC(=O)NCC2CCN(Cc3ccccc3Cl)CC2)cc(OC)c1OC	3%&1%
-3	?	-1.0%	COc1cccc(N(CC(=O)Nc2cccc(C(C)=O)c2)S(C)(=O)=O)c1	-2%
3	21%	-3.3%	COC(=O)c1sc(NC(=O)CC(C)C)c(C(=O)OC)c1C	-2%
nt	-16%	2.7%	Cc1cc(C(=O)Nc2ccc(C)c(C)c2)n(-c2ccccc2)n1	-10%
-3	?	?	Cc1ccc(Nc2nc(N)[nH]c(=O)c2N=O)cc1	8%
nt	2%	-2.0%	COC(=O)c1ccc(CNC(=O)CCc2c[nH]c3ccccc23)cc1	1%
3	1%	-4.6%	O=C(CCC(=O)c1ccc[nH]1)c1ccc(Cl)cc1	-46%
-9	-5%	-1.9%	COc1cc(NC(=S)NCCSc2ccc(C)cc2)cc(OC)c1	-5%
0	-2%	-4.6%	Cc1cc(C)cc(C(=O)NCC(=O)OCc2c(C)noc2C)c1	-7%
-3	-2%	1.7%	CC1CCN(c2ccc(C(F)(F)F)cc2N)CC1	-2%
nt	-9%	-0.1%	Cc1ccc(-n2ncc3c(=O)[nH]c(SCC(=O)NCC4CCCO4)nc32)cc1 (stereo unspecified)	nt
-4	3%	-7.5%	COC(=O)/C(C#N)=C/c1c(Oc2cc(C)cc(C)c2)nc2c(C)cccn2c1=O	-2%
4	4%	0.6%	CC(NC(=O)C(C)(C)C)C(c1cccs1)N1CCN(Cc2ccccc2)CC1 (stereo unspecified)	8%
nt	24%	4.5%	COc1ccc(CCNS(=O)(=O)CCNC(=O)c2ccc3c(c2)OCO3)cc1OC	nt
-1	21%	2.4%	O=C1OC(/C(=C\Nc2cc(Cl)ccc2O)[N+](=O)[O-])c2ccccc21 (stereo unspecified)	9%
2	-15%	1.0%	Cn1nnnc1SCc1ccc(Cl)cc1	-5%
-1	1%	0.0%	CCCCCOc1ccc(CSC(=N)N)cc1[N+](=O)[O-]	15%
-8	-10%	0.1%	Cc1ccccc1/C=C/C12NC(=O)CN1c1ccccc1C2(C)C (stereo unspecified)	-26%
nt	16%	1.2%	CCC(C)n1c(SCC(=O)N(CC)c2c(N)n(Cc3ccccc3)c(=O)[nH]c2=O)nc2ccccc2c1=O (stereo unspecified)	nt
11	1%	-0.4%	COc1ccc([N+](=O)[O-])cc1NC(=O)C(C)c1ccccc1 (stereo unspecified)	-10%
nt	20%	-4.0%	CC1CCCN(C(=O)COC(=O)C2=COCCO2)C1 (stereo unspecified)	nt
nt	8%	5.0%	Cn1c(C(=O)N2CCC(C(=O)NCc3ccccc3)CC2)cc2sccc21	5%
nt	-2%	1.7%	Cc1ccc(OCC(=O)N2CCCCCCC2)cc1	-33%
-12	6%	-5.4%	COc1cc2ncnc(NCCCN3CCOCC3)c2cc1OC	-5%
-4	0%	?	CCCOC(=O)c1ccc(NC(=O)c2cc(OC)c(OC)c(OC)c2Br)cc1	4%
1	?	?	COc1ccc(NC(=O)CN2C(=O)c3cccc4cccc2c34)c(OC)c1	-11%
-10	11%	-1.3%	Nc1ncnc(Nc2cc(C(F)(F)F)cc(C(F)(F)F)c2)n1	-3%
0	-15%	0.4%	COc1cc(C(=O)N2CCN(C(=O)c3ccco3)CC2)cc(OC)c1OC	-1%
nt	-5%	-1.0%	Cc1ccc(Cc2nnc(SCC(=O)Nc3ccccc3Cl)[nH]c2=O)cc1	nt
nt	14%	0.2%	CCOC(=O)C1Nc2c(cc(C(F)(F)F)cc2[N+](=O)[O-])C2c3ccccc3CC12 (stereo unspecified)	nt
-3	3%	5.4%	CCCCNc1cnn(-c2ccccc2)c(=O)c1Cl	-47%
-1	-13%	-2.2%	CCOC(=O)Cn1cc(/C=N/NC(=O)c2cc3ccccc3o2)c2ccccc21	-7%
4	7%	-0.2%	COc1ccc(NC(=S)NCCCN2CCCC2=O)c(OC)c1	-3%
-9	?	?	O=C(/C=C/c1ccc[nH]1)c1ccc(F)cc1	-49%
nt	28%	-0.7%	COc1cccc(NC(=O)CSc2nc3scc(C)c3c(=O)[nH]2)c1	6%
nt	-3%	-0.4%	CCOC(=O)c1cccc(NC(=O)c2ccc(F)cc2F)c1	nt
-6	-24%	1.6%	O=C(CN1C(=O)CSC1=O)N1CCc2ccccc2C1	-1%
-4	0%	0.1%	Cc1cc(-c2nn(-c3ccccc3F)cc2CN2CCCC(CO)C2)c(C)s1 (stereo unspecified)	0%
nt	-2%	0.5%	CCOc1nc(C)ccc1-c1noc(-c2cccnc2)n1	-14%
-1	-10%	?	CN(C)c1ccc(/C=N/N=C2/SC(CC(=O)O)C(=O)N2c2ccc(O)cc2)cc1 (stereo unspecified)	0%
-5	2%	0.8%	CC(=O)Nc1cccc(/C(C)=N/NC(=O)c2ccc3c(c2)OCO3)c1	-8%
3	12%	-1.9%	O=C(Nc1ccc(S(=O)(=O)N2CCCCC2)cc1)c1cnccn1	-3%
-3	-6%	0.1%	CCCCOC(=O)c1ccc(NS(=O)(=O)c2cc(-c3nnnn3CC)ccc2OC)cc1	-10%
nt	3%	-0.8%	COc1ccc(NS(=O)(=O)c2cccc(C(=O)NCc3cccnc3)c2)cc1	nt
-5	15%	-5.3%	CC(C)(C)NCC(O)COc1cccc2[nH]c(=O)[nH]c12 (stereo unspecified)	nt
2	0%	2.0%	O=C(O)CCCNC(=O)CCn1nnc2ccccc2c1=O	-19%
-3	25%	0.6%	CCC(=O)Nc1cccc(-n2nnnc2SCC(=O)N(C(C)C)C(C)C)c1	0%
nt	-17%	-4.6%	O=C(CSc1nc2ccccc2c(=O)[nH]1)Nc1ccc(N2CCOCC2)c(Cl)c1	-13%
nt	-14%	-1.8%	Cc1nc(SCc2ccc(F)cc2)n[nH]1	-29%
-8	2%	-2.0%	C/C(=N\NC(=O)CN1CCN(Cc2ccc(C)cc2)CC1)c1ccncc1	-7%
nt	-11%	2.3%	COc1ccc(C2/C(=C(/O)c3ccc(S(=O)(=O)N4CCOCC4)cc3)C(=O)C(=O)N2CCN2CCOCC2)cc1 (stereo unspecified)	0%
-21	-1%	-1.8%	CCCCc1n[nH]c2c1/C(=N/OCC)CC(C)(C)C2	2%
nt	-17%	2.8%	COc1ccc(N2CCN(CCN3C(=O)c4ccccc4C3=O)CC2)cc1	3%

# For reference, part of the list above.
GLA inh pH 4.5	Rango dissoc inh	Rango-impB inh	compound	miR-21 reporter
-21	-1%	-1.8%	CCCCc1n[nH]c2c1/C(=N/OCC)CC(C)(C)C2	2%
nt	-17%	2.8%	COc1ccc(N2CCN(CCN3C(=O)c4ccccc4C3=O)CC2)cc1	3%

# More results
GLA inh pH 4.5	Rango dissoc inh	Rango-impB inh	compound	miR-21 reporter
3	15%	0.8%	O=C(COc1ccc([N+](=O)[O-])cc1)NCCc1nc2ccccc2[nH]1	5%
6	10%	-1.4%	COC(=O)c1coc(-c2ccc(OC)cc2)c1C(=O)OC	-43%
-6	?	?	Oc1cccc(/C=N/c2c(-c3ccco3)nc3ccccn23)c1	-11%
3	-2%	-6.4%	CC1(C)C2CCC13CS(=O)(=O)N[C@@H]3C2 (stereo partly specified)	1%
-3	-13%	2.9%	CN1CCC(N(C)C(=S)NC(=O)C23CC4CC(CC(C4)C2)C3)CC1	-8%
7	1%	0.2%	CC(=O)c1cccc(NC(=O)c2noc3c2CCc2ccccc2-3)c1	-43%
-2	21%	-0.2%	O=C(NC1CCOC1)c1ccc(OC2CCN(CCc3ccccc3)CC2)cc1 (stereo unspecified)	-7%
2	-12%	3.5%	c1ccc(Cn2nnc3c(NCCN4CCOCC4)ncnc32)cc1	-6%
5	37%	9.8%	C=C(C)Cn1cnc2cc(C)c(C)cc21	-3%
0	-1%	-0.2%	COc1ccc(CCNC(=O)c2ccccc2Cl)cc1OC	-5%
-4	nt	nt	O=C1CSC(=S)N1/N=C/c1ccc(Cl)c([N+](=O)[O-])c1	0%
nt	13%	3.7%	Cc1cccc(NC(=O)CNC(=O)c2cn(Cc3ccccc3)nc2-c2cccnc2)c1C	nt
8	-4%	-0.7%	CC(NC(=O)c1cccc(S(=O)(=O)N2CCN(C)CC2)c1)C1CC2CCC1C2 (stereo unspecified)	-7%
nt	1%	4.2%	CCOc1ccc(Br)cc1S(=O)(=O)NCCN1CCCC1	-10%
-1	4%	0.3%	COCCC(=O)N1CCCC(CCC(=O)NCc2ccc(F)c(F)c2)C1 (stereo unspecified)	-14%
1	-5%	-1.5%	Cc1cccc(OCc2nnc(N)s2)c1C	-17%
2	nt	nt	CCOC(=O)c1ccc(-n2c(CC)nc3ccccc3c2=O)cc1	-2%
-5	-14%	-4.4%	Cc1nc(S(=O)(=O)c2ccc(Cl)cc2Cl)nc2c1CCC2	-5%
nt	-9%	-3.7%	O=C(NC1CCC(O)CC1)c1cccc2cccnc12 (stereo unspecified)	-6%
3	-5%	0.6%	Cc1cccc(CC(C)NC(=O)CCc2nnc(-c3ccccc3)o2)n1 (stereo unspecified)	1%

# Molecules from the list above that contain a tert-butyl group:
GLA inh pH 4.5	Rango dissoc inh	Rango-impB inh	compound	miR-21 reporter
4	4%	0.6%	CC(NC(=O)C(C)(C)C)C(c1cccs1)N1CCN(Cc2ccccc2)CC1 (stereo unspecified)	8%
-5	15%	-5.3%	CC(C)(C)NCC(O)COc1cccc2[nH]c(=O)[nH]c12 (stereo unspecified)	nt

# (listing goes on)
GLA inh pH 4.5	Rango dissoc inh	Rango-impB inh	compound	miR-21 reporter
0	1%	-1.4%	Cc1oc2ccc(NS(=O)(=O)c3ccccc3)cc2c1C(=O)Nc1ccccc1	-14%
1	-18%	-4.3%	CC(NC(=O)c1ccc(C(F)(F)F)cc1)C(c1ccccc1)N1CCOCC1 (stereo unspecified)	-7%
-2	-22%	-0.3%	O=S1(=O)CC/C(=N/Nc2ccccn2)c2cc(F)ccc21	-6%
-6	9%	0.6%	Cc1ccc(S(=O)(=O)N2CCCC(C(=O)NC3=NCCS3)C2)cc1 (stereo unspecified)	-2%
-10	-9%	-3.0%	O=S(=O)(c1cccc2cccnc12)N(CCO)CCO	1%
nt	-9%	0.3%	O=C(NCc1ccc(Cl)cc1)C1CCCN(c2cnccn2)C1 (stereo unspecified)	1%
7	-3%	-2.6%	C/C=C\C=C/C(=O)Nc1cccc(C2=NOC3(C2)C[C@@H](C(N)=O)N(C(=O)C2(C)CC2)C3)c1 (stereo partly specified)	-8%
-4	-2%	?	COc1ccc(Nc2nc(N)nc(CSc3nccc(C)n3)n2)cc1	-58%
nt	19%	0.6%	C[C@H](CO)N1C[C@H](C)[C@H](CN(C)S(=O)(=O)c2cn(C)cn2)Oc2ccc(NC(=O)Nc3ccc(C(F)(F)F)cc3)cc2CC1=O	nt
-3	-16%	?	Cc1ccc2nc(-c3ccc(NC(=O)COCC(=O)O)cc3)sc2c1	-47%
-12	-3%	-0.6%	O=C(CSc1nc2cc(Cl)ccc2o1)N1CCOCC1	-11%

# Entries of single compounds as entered above:
# `O=C(NCc1ccc(Cl)cc1)C1CCCN(c2cnccn2)C1` (stereo unspecified) across the screens: GLA inh pH 4.5 = nt; Rango dissoc inh = -9%; Rango-impB inh = 0.3%; miR-21 reporter = 1%
# `CCCCOC(=O)c1ccc(NS(=O)(=O)c2cc(-c3nnnn3CC)ccc2OC)cc1` across the screens: GLA inh pH 4.5 = -3; Rango dissoc inh = -6%; Rango-impB inh = 0.1%; miR-21 reporter = -10%
# `CCC(=O)Nc1cccc(-n2nnnc2SCC(=O)N(C(C)C)C(C)C)c1` across the screens: GLA inh pH 4.5 = -3; Rango dissoc inh = 25%; Rango-impB inh = 0.6%; miR-21 reporter = 0%
